# GIV Gai3 FP: blocks GIV peptide binding to rat Galpha-i3 | percent of control (FP), % (test concentration not listed) | 210,000 compounds, 0.42% hits | P08753 | Galpha-i3/FITC-GIV peptide fluorescence polarization, 90 min; stronger effect = lower value; scaled: aluminum fluoride 0%, vehicle 100%;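 active = replicate mean at 85% of control or lower, very high polarization wells dropped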;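 also: wells of about 15 µL received 100 nL stock; the first replicate is given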
# Target sequence (P08753 whole entry, looked up): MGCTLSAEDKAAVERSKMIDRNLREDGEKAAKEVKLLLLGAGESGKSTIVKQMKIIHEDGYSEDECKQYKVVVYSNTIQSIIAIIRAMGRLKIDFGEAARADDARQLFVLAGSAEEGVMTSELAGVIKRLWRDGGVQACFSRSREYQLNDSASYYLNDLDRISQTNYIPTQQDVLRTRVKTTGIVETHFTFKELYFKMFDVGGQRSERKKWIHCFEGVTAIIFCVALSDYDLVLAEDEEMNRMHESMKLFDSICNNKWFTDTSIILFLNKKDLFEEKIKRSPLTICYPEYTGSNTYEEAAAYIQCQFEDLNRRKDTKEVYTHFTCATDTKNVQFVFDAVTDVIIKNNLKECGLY
# * hit, by the source's call. A portion of the library. The share of hits here may be higher or lower than overall.
SMILES,GIV Gai3 FP
CCCN1CCN(C(=O)CS(=O)Cc2cnn(-c3ccccc3)c2-n2cccc2)CC1 (centres undefined),99
CCc1ccccc1NC(=O)CSc1nc2ccccc2c(=O)n1CCC(=O)N1CCN(c2ccccc2)CC1,124
COc1cc(C2C(C(=O)N3CCCCC3)=C(C)NC3=C2C(=O)CC(C)(C)C3)cc([N+](=O)[O-])c1O (centres undefined),102
C=CCN(CC=C)CC(O)Cn1c(-c2ccccc2)c(-c2ccccc2)c2cc(C)ccc21 (centres undefined),112
CCOC(=O)c1csc(NC(=O)c2ccccc2Cl)n1,95
CCCC(=O)N1c2cc(C)ccc2C(=C2SC(C(=O)OCC)=C(C(=O)OCC)S2)C(=S)C1(C)C,112
O=[N+]([O-])c1ccc2c(c1)C=C1CCCC=C1O2,99
CCC(C(=O)Nc1c(C)nc2sccn2c1=O)c1ccccc1 (centres undefined),108
CCCCCCn1c(=O)c(C2=NS(=O)(=O)c3ccccc3N2)c(O)c2ccccc21,118
CCc1nc2sc(C)nn2c1S(=O)(=O)N1CCOCC1,97
Cc1ccc(C(=O)OCC2OC(n3cc(C)c(=O)[nH]c3=O)C(OC(=O)c3ccc(C)cc3)C2OC(=O)c2ccc(C)cc2)cc1 (centres undefined),103
NC1=NC(=O)C(C2(O)C(=O)Nc3ccc(F)cc32)S1 (centres undefined),108
Cc1cccc(N2C(=O)C(N3C(=O)c4ccc([N+](=O)[O-])cc4C3=O)C2c2ccc(F)cc2)c1 (centres undefined),103
Cc1sc(-c2nc(-c3ccccc3)no2)cc1S(=O)(=O)N1CCc2ccccc2C1,111
CCC(C)c1ccc(O)c(CN2CCCCC2)c1 (centres undefined),109
Cc1ccc(-c2ccc(-n3nc(C)c(S(=O)(=O)Nc4ccc5c(c4)OCCO5)c3C)nn2)cc1,107
CCCCCOc1ccc2c(c1)C(=NO)c1cc(OCCCCC)ccc1-2,104
N=Cc1c(O)n(-c2ccccc2)c(=S)n(-c2ccccc2)c1=O,120
N#CC1=C(N)Oc2n[nH]c(-c3ccc(Cl)cc3)c2C12C(=O)N(CC(=O)O)c1ccccc12 (centres undefined),109
CCOc1ccc(-c2nc(-c3oc4ccc(C)cc4c3C)no2)cc1,99
O=C(CN1C(=O)c2ccccc2C1=O)NCc1noc(-c2ccc(F)cc2)n1,98
CCOC(=O)C1=C(N)Oc2ccc3ccccc3c2C1c1ccccc1OC (centres undefined),103
COc1ccc(-c2cc3n(n2)CCCN(C(=O)NCC2CCCO2)C3)cc1 (centres undefined),110
O=C(NCCC1CCN(C(=O)c2ccc(F)cc2)CC1)C1CC1,94
CC(C)NC(=O)C1CCc2nc(N3CCCCC3)ncc2C1 (centres undefined),98
CCCCOc1ccc(CN2CCCC2c2c(C)noc2C)cc1 (centres undefined),106
COc1ccc(C2Oc3c(OC)cccc3C3CC(c4ccc(C)o4)=NN32)cc1 (centres undefined),153
O=C1c2ccccc2Sc2cc(-c3noc(COc4ccccc4)n3)ccc2N1C1CC1,102
CCSc1nc2ccc(NS(=O)(=O)c3c(C)n[nH]c3C)cc2s1,108
Cc1ccc(C(=O)N2CCCc3cc(C(N)=O)ccc32)cc1,102

# A different layout for some results above.
SMILES	GIV Gai3 FP
CC(C)NC(=O)C1CCc2nc(N3CCCCC3)ncc2C1 (centres undefined)	98
CCCCOc1ccc(CN2CCCC2c2c(C)noc2C)cc1 (centres undefined)	106
COc1ccc(C2Oc3c(OC)cccc3C3CC(c4ccc(C)o4)=NN32)cc1 (centres undefined)	153

# Returning to the listing, starting 7 compounds before the break.
SMILES,GIV Gai3 FP
O=C(NCCC1CCN(C(=O)c2ccc(F)cc2)CC1)C1CC1,94
CC(C)NC(=O)C1CCc2nc(N3CCCCC3)ncc2C1 (centres undefined),98
CCCCOc1ccc(CN2CCCC2c2c(C)noc2C)cc1 (centres undefined),106
COc1ccc(C2Oc3c(OC)cccc3C3CC(c4ccc(C)o4)=NN32)cc1 (centres undefined),153
O=C1c2ccccc2Sc2cc(-c3noc(COc4ccccc4)n3)ccc2N1C1CC1,102
CCSc1nc2ccc(NS(=O)(=O)c3c(C)n[nH]c3C)cc2s1,108
Cc1ccc(C(=O)N2CCCc3cc(C(N)=O)ccc32)cc1,102
Cc1cccc(Oc2c([N+](=O)[O-])c(=O)n(C)c3ccccc23)c1,128
COc1ccccc1-n1ccnc1SCC(=O)NCC1CCCO1 (centres undefined),102
CCN1CCN(C2=NC(=O)/C(=C/c3ccc(OCc4ccccc4)cc3)S2)CC1,111
COc1ccc(NC(=O)CSc2nnc(CNC(=O)c3cc(OC)c(OC)c(OC)c3)n2-c2ccccc2OC)cc1,120
Nc1nc(Cn2nnc(-c3ccc4c(c3)OCO4)n2)nc(N2CCOCC2)n1,107
COc1ccc(OC)c(-n2c(=S)[nH]c3cc(C(=O)Nc4cc(OC)c(OC)c(OC)c4)ccc3c2=O)c1,103
COc1ccc(C2/C(=C(\O)c3ccccc3)C(=O)C(=O)N2CCCN2CCOCC2)cc1OC (centres undefined),101
CC[n+]1c(/C=C/C=C2\N(C)c3ccccc3C2(C)C)n(-c2ccccc2)c2cc(Cl)ccc21,-32*
CN(C(=O)c1ccc(N=Cc2nc(-c3cccc4ccccc34)oc2O)cc1)c1ccccc1,114
Cc1[nH]n(-c2ccccc2)c(=O)c1C(c1c(Cl)cccc1Cl)c1c(C)[nH]n(-c2ccccc2)c1=O,104
CCCNC(=O)CSc1nnc2n(CCC(=O)NCC(C)C)c(=O)c3ccccc3n12,102
CC(C)n1c(N2CCN(C(=O)CC3CCCC3)CC2)cc(=O)n(C(C)C)c1=O,102
Oc1ccccc1C1=Nc2ccccc2N=C(c2ccccc2)C1,116
COc1cc(C2CC(=O)NC(SCC(=O)Nc3ccccc3C)=C2C#N)ccc1O (centres undefined),107
Cc1nn(-c2nc3ccc(Br)cc3s2)c2c1C(c1ccc(F)cc1Cl)CC(=O)N2 (centres undefined),101
CCc1cc2c3c(c(=O)oc2cc1OC(C)C(=O)O)CCCC3 (centres undefined),112
CCOC(=O)C1=C(CSc2nc(C)c(C)c(C)c2C#N)OC(N)=C(C#N)C1c1ccccc1OC (centres undefined),114
O=C(NCc1ccc2c(c1)OCO2)c1ccc2ccnc(N3CCN(c4ccccc4)CC3)c2c1,107
COc1cc(C2NC(=O)c3c(sc4c3CCCC4)N2)ccc1O (centres undefined),115
CN(C)C(=O)c1ccc(-c2nnc(NCc3ccccc3)c3ccccc23)cc1,102
NC(=O)C1CCN(C(=O)c2ccc3c(=O)n(C4CCCCC4)c(SCC(=O)c4ccccc4)nc3c2)CC1,118
CCc1cc(C2CCCN2S(=O)(=O)c2ccc(C)cc2)on1 (centres undefined),102
COC(=O)c1ccc2c(=O)n(Cc3ccc4c(c3)OCO4)c(SC)nc2c1,104
Cc1ccc(-n2c(=O)c3ccccc3n(Cc3nc(-c4ccc5c(c4)OCO5)no3)c2=O)cc1C,101
Cc1ccc(-c2nc(C3CCN(C(=O)C4CC(=O)N(c5ccc(C)c(C)c5)C4)CC3)no2)cc1 (centres undefined),104
Cc1[nH]n(-c2ccccc2)c(=O)c1C(c1ccccc1OC(=O)c1ccc(Cl)cc1)c1c(C)[nH]n(-c2ccccc2)c1=O,120
Cc1ccccc1CC(=O)N1CCC(COc2ccc(C(=O)N3CCCCC3)cc2)CC1,103
COc1ccc(-n2c(/C=C\c3ccc(F)cc3)nc3cc(OC)c(OC)cc3c2=O)cc1,108
Cc1cccn2cc(-c3ccc(S(=O)(=O)N4CCCCC4)cc3)nc12,102
CCOC(=O)c1c(CSc2ccccc2)oc2cc(CN(C)C)c(O)c(Cl)c12,97
CCN(CC)c1nc2ccsc2c(=O)n1CCC(=O)N1CCN(c2ccccn2)CC1,101
COc1ccc(OC)c(NC(=O)c2sc(=S)n(-c3ccccc3C)c2N)c1,105
Nc1nc(N2CCC3(CC2)OCCO3)ncc1S(=O)(=O)c1ccc(Cl)cc1,101
Cc1cccc(C(=O)Nc2ccccc2SCc2nnc(-c3ccccc3)o2)c1,104
O=C(CSc1nnc2ccc(C(=O)Nc3cccc(F)c3)cn12)Nc1cccc(Br)c1,107
CCOC(=O)c1c(S(=O)(=O)N2CCC(C(=O)Nc3ccc(F)c(F)c3)CC2)c(C)n(C)c1C,103
CCCNC(=O)C1CCCN(c2ncc(-c3ccc(F)cc3)cn2)C1 (centres undefined),103
CCOC(=O)c1ccc(NC(=O)C2CCN(c3nccc4sc(C)cc34)CC2)cc1,104
COc1cc(NC(=O)c2ccc(N3CC4CC(C3)c3cccc(=O)n3C4)c(NC(=O)c3ccncc3)c2)cc(OC)c1OC (centres undefined),115
c1cncc(CN2CCN(c3ncnc4c3CCC4)CC2)c1,100

# Looked up one by one from above, 2 records:
SMILES,GIV Gai3 FP
Cc1cccc(C(=O)Nc2ccccc2SCc2nnc(-c3ccccc3)o2)c1,104
CCOC(=O)c1ccc(NC(=O)C2CCN(c3nccc4sc(C)cc34)CC2)cc1,104

# Copied from the list:
# COc1ccc(OC)c(-n2c(=S)[nH]c3cc(C(=O)Nc4cc(OC)c(OC)c(OC)c4)ccc3c2=O)c1 in GIV Gai3 FP: 103
# CCc1cc(C2CCCN2S(=O)(=O)c2ccc(C)cc2)on1 (centres undefined) in GIV Gai3 FP: 102
# COc1cc(C2NC(=O)c3c(sc4c3CCCC4)N2)ccc1O (centres undefined) in GIV Gai3 FP: 115

# (list continues)
SMILES,GIV Gai3 FP
O=C(CSCC(=O)Nc1ccc2nc(SCC(=O)NC3CC3)sc2c1)Nc1ccc2ccccc2c1,100
O=c1oc2cc(O)ccc2cc1-c1nc(-c2ccc3ccccc3c2)cs1,-29*
COC(=O)c1cc(C(=O)OC)cc(N2C(=O)CSC2c2ccc(F)c(F)c2)c1 (centres undefined),107
Brc1ccc(C2=Nn3cnnc3SC2)cc1,127
CCn1c(CCc2ccccc2NS(=O)(=O)c2c(C)n[nH]c2C)nc2ccccc21,101
Cn1cnc2c(C(=O)N3CCC(N4CCCCC4)CC3)nn(-c3ccccc3)c2c1=O,107
O=C(Nc1ccccc1F)c1ccc(N2CC3CC(C2)c2cccc(=O)n2C3)c(NC(=O)c2cccc(C(F)(F)F)c2)c1 (centres undefined),97
Cc1ccc(S(=O)(=O)Nc2ccc3oc4c(c3c2)C(=O)CC(C)(C)C4)c(C)c1,110
O=C(NNC(=O)C1OC2OC3(CCCCC3)OC2C2OC3(CCCCC3)OC12)c1cccc(Cl)c1 (centres undefined),94
Cc1onc(-c2ccccc2Cl)c1C(=O)Nc1cccc(-c2cn3cccnc3n2)c1,104
CCN(Cc1ccccc1)S(=O)(=O)c1cc(C(=O)Nc2ccccc2Cl)ccc1F,109
CC1CCN(C(=O)CSc2nnc(NC(=O)NC3CCCCC3)s2)CC1,102
O=C(Cn1cc(-c2nc(-c3ccc(Cl)cc3)no2)ccc1=O)NC1CCCC1,104
O=c1ccn(-c2cccc(F)c2)nc1-c1nc(-c2ccccc2)no1,104
O=C1c2ccccc2NC(c2ccc(Cl)cc2Cl)N1c1ccc(F)c(Cl)c1 (centres undefined),99
CC1C(c2ccccc2)NC(c2ccccc2)C(C)C1O (centres undefined),112
Cc1ccn2cc(-c3ccc(S(=O)(=O)N4CCOCC4)cc3)nc2c1,99
O=C(/C=C/c1ccccc1)C1(O)CCCCC1,101
COc1ccc(N2C(C(C)=O)=NN(c3ccccc3)C2c2ccccc2OCc2c(Cl)cccc2Cl)cc1 (centres undefined),170
CCOc1ccc(NC(=O)CSc2nc(NCCOC)c3ccccc3n2)cc1,101
COc1ccc(S(=O)(=O)Cc2nc(-c3ccc(OC)c(OC)c3)no2)cc1,101
COC(=O)c1ccc(N2C(=O)CSC23C(=O)Nc2ccccc23)cc1 (centres undefined),111
Cc1ccc(-n2ccc(=O)c(-c3nc(-c4ccccc4C)no3)n2)cc1C,97
CCOC(=O)c1sc2nc(SCC(=O)NCc3ccco3)n(Cc3ccc(Cl)cc3)c(=O)c2c1C,111
CN1C(=O)CC(C(=O)Nc2ccccc2F)SC1=Nc1ccc(Br)cc1 (centres undefined),111
CN(C)CCN1C(=O)C(=O)/C(=C(/O)c2ccccc2)C1c1ccc(N(C)C)cc1 (centres undefined),113
O=C(NCCCc1ccccc1)C1CCCN(c2nn3c(=O)c4c(nc3s2)CCCC4)C1 (centres undefined),103
COC(=O)C1=C(N)n2c(s/c(=C/c3ccccc3OC)c2=O)=C(C(=O)OC)C1c1ccccc1OC (centres undefined),104
COC(=O)C1=CN(CCOC23CC4CC(CC(C4)C2)C3)C=C(C(=O)OC)C1c1ccc2c(c1)OCO2,107
CC(C)n1c(N2CCCN(C(=O)CC3CCCCC3)CC2)cc(=O)n(C(C)C)c1=O,103
CC(=O)Nc1nsc(N2CCC(C(=O)NCc3cccs3)CC2)n1,100
Cc1ccccc1-n1c(=O)c2c(n3cnnc13)-c1ccccc1CC21CCCCC1,104
CC1CCN(S(=O)(=O)c2ccc(-c3cnc(C4CCCC4)o3)s2)CC1,104
COC(=O)C1=C(C)NC(SCC(=O)Nc2ccc(C(C)=O)cc2)=C(C#N)C1c1ccccc1Cl (centres undefined),105
NS(=O)(=O)c1ccc(CCNC(=O)c2cccc(-n3c(=S)[nH]c4cc(Cl)ccc4c3=O)c2)cc1,97
Cc1ccc(CNS(=O)(=O)c2c(C)sc(C)c2-c2cc(C(F)(F)F)on2)o1,111
O=C(NCc1ccc2c(c1)OCO2)c1cccc(-c2nc(-c3cccc(F)c3)no2)c1,103
CC(C)(C)OC(=O)Cn1nc2ccc(S(=O)(=O)N3CCSCC3)cn2c1=O,100
CCCCOC(=O)c1ccc(-n2c3nc(=O)n(CCCC)c(=O)c-3cc3ccccc32)cc1,114
O=C(NC1CC1)c1ccc(OCC2CCCN2C(=O)C2CCCO2)cc1 (centres undefined),103
CCOC(=O)c1sc(NC(=O)C(C)Sc2nnc(CNC(=O)c3cccc(C)c3)n2C)c(C(=O)OCC)c1C (centres undefined),110
Cn1c(=O)c(=O)n(CC(=O)N2CCN(Cc3ccccc3)CC2)c2cccnc21,102
C=CCn1ccc2c(OCC(=O)Nc3cc(C)on3)cccc2c1=O,99
O=S(=O)(c1ccc(-c2nnc(C3CCCC3)o2)o1)N1CCOCC1,103
